From PubChem
RGS16-Gao – modulates binding between human RGS16 and Galphao; bead-based flow cytometry RGS16-Galphao binding, fluorescence; actives lie on both sides; hit rate 0.38% among 220,000; O15492+P09471; binding response (% of control), % at 10 µM;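 active means below 25% or above 175%, edge rows of some plates excepted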;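 further: Galphao activated by GDP with aluminum fluoride before binding; 100% = wells without compound and 0% = beads without RGS; some results beyond the cut were filed as inactive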
GALR2 ag – activates the human galanin receptor 2; O43603; GALR2-expressing cells, agonist activation read-out; activation, %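 (tested at 5 µM)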; hit rate 0.48% among 140,000;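 active means above mean plus 3 SD of all compounds, about 5% in these data, not always enough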;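 further: 0% = vehicle buffer wells and 100% = reference agonist at full effect; tested in CHO reporter cells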
HSV replic up – increases HSV replication in cells; maximum fold increase; HSV replication augmentation in cells, fold increase; hit rate 0.005% among 220,000;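 active means peak rise of 1.5-fold or more in the series; inconclusive means self-fluorescent or not available for retest; tested in PC3 cells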;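 further: first round at 10 µM; read as green reporter fluorescence; hits show the peak of a series up to 25 µM; 1 = signal of infected wells without compound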
Insulin prom inh – TRM-6 insulin promoter activity inhibition. inhibition, % at 2 µM. TRM-6 cells (human fetal islet line), insulin promoter-eGFP reporter, imaging; reporter expression induced with tamoxifen. hit rate 0.9% among 130,000. AID 1273;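 active means inhibition above the mean plus 3 SD, with well images judged a real hit on visual review, cut at about 60% in these data, passing the limit was not always enough; inconclusive means inhibition over the cutoff but images rejected on review; inactive means inhibition not above the cutoff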
PKD1 inh – PKD1 (human) kinase inhibition; Q15139; hit rate 0.056% among 200,000; PKD1 kinase fluorescence polarization assay; inhibition, %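 (about 10 µM by stock and volumes)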;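 active means inhibition of 50% or more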;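 further: controls were vehicle for no effect and a reference inhibitor for full effect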
Target sequence (Q15139 whole entry, looked up): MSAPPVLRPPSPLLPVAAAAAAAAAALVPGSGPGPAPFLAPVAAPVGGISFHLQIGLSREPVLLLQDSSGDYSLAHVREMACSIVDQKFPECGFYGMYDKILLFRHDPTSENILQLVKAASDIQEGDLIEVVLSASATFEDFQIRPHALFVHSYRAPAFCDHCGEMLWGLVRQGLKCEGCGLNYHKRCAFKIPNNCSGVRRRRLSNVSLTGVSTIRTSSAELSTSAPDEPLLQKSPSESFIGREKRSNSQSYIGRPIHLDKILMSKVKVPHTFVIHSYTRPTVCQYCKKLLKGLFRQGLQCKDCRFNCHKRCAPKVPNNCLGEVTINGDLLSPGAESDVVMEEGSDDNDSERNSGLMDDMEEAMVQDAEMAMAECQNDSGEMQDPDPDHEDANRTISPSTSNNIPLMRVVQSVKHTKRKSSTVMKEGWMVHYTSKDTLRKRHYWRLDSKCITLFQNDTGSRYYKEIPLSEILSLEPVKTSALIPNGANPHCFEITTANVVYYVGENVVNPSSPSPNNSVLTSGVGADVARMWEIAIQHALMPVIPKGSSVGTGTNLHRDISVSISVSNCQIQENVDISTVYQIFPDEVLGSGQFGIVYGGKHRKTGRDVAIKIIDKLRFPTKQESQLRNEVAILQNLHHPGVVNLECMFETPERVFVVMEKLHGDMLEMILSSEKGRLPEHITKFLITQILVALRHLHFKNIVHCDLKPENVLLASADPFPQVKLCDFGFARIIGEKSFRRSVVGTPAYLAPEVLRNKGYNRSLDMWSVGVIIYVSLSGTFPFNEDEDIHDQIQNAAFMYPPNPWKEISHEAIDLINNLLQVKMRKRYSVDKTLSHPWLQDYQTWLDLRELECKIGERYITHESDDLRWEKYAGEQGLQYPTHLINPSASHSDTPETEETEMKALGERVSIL
Insulin prom inh cell count – further read-out of Insulin prom inh, marked with its call; normalized cell count, %; measured here: cell count, toxicity; reference of the scale not given here;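 cells exposed to compound for 48 h; stained nuclei by imaging scaled within each plate; lower means fewer cells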
HSV replic up primary fold – recorded beside HSV replic up, whose call it bears; fold increase; compound at 10 µM; measured here: primary screen fold increase 10 uM; tested in PC3 cells;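 GFP signal in the first replicate; 1 = infected wells without compound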
An asterisk follows results filed as active; i = inactive; ? = inconclusive; . = not tested or not shown; [ ] = another dose, or the depositor's remark. An unsorted share of the library; about 1.3% have a hit in one of these screens.

compound	RGS16-Gao	GALR2 ag	HSV replic up	HSV replic up primary fold	Insulin prom inh	Insulin prom inh cell count	PKD1 inh
CCN(CC)CCCNC(=O)C1c2ccccc2C(=O)N(CCOC)C1c1ccc(F)cc1 (configuration not stated)	101	.	i	0.95	.	.	-4
CC(Oc1ccc(Cl)cc1Cl)c1ccn[nH]1 (configuration not stated)	98	.	i	0.82	-306	46	-11
CNC(=O)c1ccc2snnc2c1	98	-2.4	i	0.98	.	.	-8
CCc1c(C)nc2[nH]nc(NC(=O)C(F)(F)F)n2c1=O	104	-0.3	i	0.96	6	126	-19
CCOC(=O)C1=C(C(F)(F)F)Nc2ncnn2C1c1cccc(OC)c1OC (configuration not stated)	101	1.1	i	0.91	0	161	10
CCC1=C(OC(=O)N(CC)CC)N2C(=O)OC(=NCCc3c[nH]c4ccccc34)[C@]2(C)[C@H]2C1=CC[C@H]1C(=O)N(CC)C(=O)[C@H]12	97	.	i	0.79	.	.	.
Cc1ccc(C(=O)NCCN2C3=NC[C@H](Cc4ccc(O)cc4)N3C[C@H]2Cc2ccc(O)cc2)cc1Br	96	.	i	0.89	.	.	.
CNc1nc(NC)nc(-n2c(C(F)(F)F)nc3ccccc32)n1	99	-1.0	i	0.91	-28	118	6

(cont.)
compound	RGS16-Gao	GALR2 ag	HSV replic up	HSV replic up primary fold	Insulin prom inh	Insulin prom inh cell count	PKD1 inh
COc1ccccc1NC(=O)Nc1nnc(CC(=O)Nc2ccccc2)s1	46	.	i	0.94	58	80	-2
COc1cccc(OCCOc2ccccc2[N+](=O)[O-])c1	.	-2.9	i	0.89	10	74	-9
CCOC(=O)c1ccc(NC(=O)N2CCN(C(=O)C3CCCO3)CC2)cc1 (configuration not stated)	99	.	i	1	.	.	-3
Cc1cccn2c(=O)c(C=O)c(N3CCN(c4ccc(F)cc4)CC3)nc12	99	.	i	0.94	.	.	0
Cc1ccc2c(c1)c1c(n2CC(O)Cn2c(C)nc3ccccc32)/C(=N\O)CCC1 (configuration not stated)	107	0.7	i	0.8	-140	104	5
Cc1nn(C)c(C(=O)Nc2ccn(C34CC5CC(CC(C5)C3)C4)n2)c1[N+](=O)[O-]	103	-0.8	i	0.89	4	99	2
COc1ccc(/C=N\NC(=S)SCN2C(=O)C3CCC(C)(C2=O)C3(C)C)cc1 (configuration not stated)	107	-1.7	?	.	-17	131	-7
COc1cccc(/C=C/C(=O)NCc2ccc(S(N)(=O)=O)cc2)c1	86	.	i	1.1	.	.	.

New compounds follow.
compound	RGS16-Gao	GALR2 ag	HSV replic up	HSV replic up primary fold	Insulin prom inh	Insulin prom inh cell count	PKD1 inh
CC(CC(=O)Nc1cccnc1)c1ccccc1 (configuration not stated)	98	.	i	0.79	.	.	7
O=C(CCn1c(=O)sc2ccccc21)NCCC1=CCCCC1	102	.	i	0.71	.	.	.
CCc1nnc(NC(=O)c2ccc(-c3cc(C(F)(F)F)ccc3Cl)o2)s1	101	0.3	i	1.1	.	.	3
CCc1ccc(C2=CC(c3cc(Br)ccc3F)n3ncnc3N2)cc1 (configuration not stated)	88	-1.9	i	1	28	73	2
COc1ccccc1NC(=S)N1CCN(C(c2ccccc2)c2ccccc2)CC1	98	.	i	0.99	-28	107	-3
Cc1cccc(NC(=O)NNC(=O)c2cc3ccccc3cc2O)c1C	104	.	i	1.1	.	.	-10
Nc1nc2ccc([N+](=O)[O-])cc2[nH]1	111	.	i	0.98	.	.	.
O=C(Nc1ncn[nH]1)C(F)(F)C(F)F	92	-2.9	i	1	7	89	-8

The list continues:
compound	RGS16-Gao	GALR2 ag	HSV replic up	HSV replic up primary fold	Insulin prom inh	Insulin prom inh cell count	PKD1 inh
CCCC(O)(CCC)C(=O)NN(C(=O)CCl)c1cccc(C)c1	160	-1.5	i	1	11	46	-1
COc1ccc(-n2cnnc2SCC(=O)Nc2cccc([N+](=O)[O-])c2)cc1	101	.	i	0.98	.	.	-3
CCOc1ccc(-c2nc(C#N)c(NCC(C)C)o2)cc1	96	0.1	i	0.91	12	85	-6
C=CCc1ccccc1OCC(=O)N/N=C/c1ccccc1OCC	102	-0.2	i	0.85	-7	126	-4
COc1c(Cl)cc(Cl)cc1C(=O)Nc1ccc(C(=O)O)cc1	62	-1.0	i	0.86	-69	128	1
Cc1nc(-c2nnc(SCC(=O)Nc3ccc(C(F)(F)F)cc3)n2C)cs1	95	.	i	0.97	.	.	.
Cc1ccccc1N1C(=O)c2ccccc2N2C(=O)c3ccccc3C12 (configuration not stated)	100	-0.9	i	1.1	-17	105	-12
CC(C)c1ccc(/C=N/NC(=O)c2cccc(Cl)c2)cc1	109	0.1	i	0.55	i	72	-5

The list goes on:
compound	RGS16-Gao	GALR2 ag	HSV replic up	HSV replic up primary fold	Insulin prom inh	Insulin prom inh cell count	PKD1 inh
O=C(/C=C/c1cccc2ccccc12)NCCC1=CCCCC1	100	-1.8	.	.	.	.	1
Nn1cc(-c2ccccc2)nc1SCC(=O)Nc1ccc(S(N)(=O)=O)cc1	108	.	i	1.1	.	.	.
Cc1cc(NC(=O)c2sc(Nc3cccc(C(F)(F)F)c3)nc2N)no1	106	-0.9	i	0.83	32	112	-6
c1ccc(-c2ccc(-c3cnc4n3CCCCC4)cc2)cc1	99	-0.6	i	0.79	6	66	0
CCn1c(=O)c2cc(S(=O)(=O)NCCOc3ccccc3)ccc2n(CC)c1=O	100	-1.7	i	1.1	-77	90	-4
CCOC(=O)c1ccc(NC(=O)CNC(=O)C2CCCCC2)cc1	105	-1.5	i	0.99	.	.	10
CCOC(=O)C(Cc1ccc(OC)c([N+](=O)[O-])c1)NC(=O)CCC(=O)Nc1ccc(C)cc1 (configuration not stated)	55	.	i	1.1	.	.	-13
Cn1cc(CNCCCn2ncc3ccccc32)c(-c2ccccc2F)n1	99	.	i	0.98	.	.	-5

(listing goes on)
compound	RGS16-Gao	GALR2 ag	HSV replic up	HSV replic up primary fold	Insulin prom inh	Insulin prom inh cell count	PKD1 inh
CC(C)(C)NC(=O)CC1C(=O)NCCN1Cc1c(F)cccc1Cl (configuration not stated)	93	.	i	1.1	.	.	8
C=CCSc1nc2ccccc2[nH]1	99	-0.9	i	0.89	82*	184*	-6
COCCOC(=O)C1=C(C)NC2=C(C(=O)CC(c3cccs3)C2)C1c1ccsc1 (configuration not stated)	101	1.4	i	0.82	.	.	1
CC(NC(=O)C12CC3CC(CC(C3)C1)C2)C(=O)N/N=C/C1=C(N2CCOCC2)C(=C\c2ccccc2)/CC1 (configuration not stated)	89	-2.1	i	0.87	-12	95	-2
COc1ccc(C(=O)C23CC4CC(C2)CC(C(=O)c2ccc(OC)cc2)(C4)C3)cc1	100	.	i	1	.	.	7
CCN(CC)C(=O)C12C(=O)Oc3ccccc3C1C2(C)C(=O)c1ccc(F)cc1 (configuration not stated)	96	.	i	1.1	.	.	.
CC1CC(C)CN(CC(=O)N2CCc3[nH]c4ccccc4c3C2)C1 (configuration not stated)	100	-0.5	i	1.1	43	135	-2
COc1ccc(C)cc1NC(=O)c1cnc2n(c1=O)CCS2	103	-2.6	i	1	31	118	8

(listing goes on)
compound	RGS16-Gao	GALR2 ag	HSV replic up	HSV replic up primary fold	Insulin prom inh	Insulin prom inh cell count	PKD1 inh
Cc1cc(-c2n[nH]c(=S)n2/N=C/c2sccc2C)n[nH]1	107	-0.6	i	0.95	2	77	-2
CC(=O)Oc1cc(C(C)C)c(OCCN(C)C)cc1C	.	-0.7	i	0.76	13	133	-8
Nc1cc(=O)[nH]c(SCC(=O)N2CCN(S(=O)(=O)c3ccc4ccccc4c3)CC2)n1	106	.	i	1	31	100	-2
Cn1c(N)c(C(=O)COC(=O)C2=COCCO2)c(=O)n(C)c1=O	99	-2.4	i	0.91	22	103	-6
O=C(NCc1ccc(OC(F)(F)F)cc1)C1CC(c2cccc(F)c2)=NO1 (configuration not stated)	96	.	i	0.92	.	.	.
COC(=O)c1nnn(-c2nonc2N)c1-c1cccs1	80	-4.0	i	0.91	50	46	-10
Cc1ccc(C)c(NC(=O)C(Sc2ncnc3ccccc23)c2ccccc2)c1 (configuration not stated)	172	0.2	i	1.1	30	57	4
Cc1ccc(CCNC(=O)C2CCN(c3nn4c(=O)cc(C)nc4s3)CC2)cc1	101	-1.0	i	0.93	-108	128	1

Three compounds picked at random from the list so far:
compound	RGS16-Gao	GALR2 ag	HSV replic up	HSV replic up primary fold	Insulin prom inh	Insulin prom inh cell count	PKD1 inh
Cn1c(N)c(C(=O)COC(=O)C2=COCCO2)c(=O)n(C)c1=O	99	-2.4	i	0.91	22	103	-6
Cc1ccc(CCNC(=O)C2CCN(c3nn4c(=O)cc(C)nc4s3)CC2)cc1	101	-1.0	i	0.93	-108	128	1
COC(=O)c1nnn(-c2nonc2N)c1-c1cccs1	80	-4.0	i	0.91	50	46	-10

Compounds listed so far with a thiophene ring, fused or not:
compound	RGS16-Gao	GALR2 ag	HSV replic up	HSV replic up primary fold	Insulin prom inh	Insulin prom inh cell count	PKD1 inh
COCCOC(=O)C1=C(C)NC2=C(C(=O)CC(c3cccs3)C2)C1c1ccsc1 (configuration not stated)	101	1.4	i	0.82	.	.	1
Cc1cc(-c2n[nH]c(=S)n2/N=C/c2sccc2C)n[nH]1	107	-0.6	i	0.95	2	77	-2
COC(=O)c1nnn(-c2nonc2N)c1-c1cccs1	80	-4.0	i	0.91	50	46	-10

(list continues)
compound	RGS16-Gao	GALR2 ag	HSV replic up	HSV replic up primary fold	Insulin prom inh	Insulin prom inh cell count	PKD1 inh
COc1cc(/C=C(/C(=O)c2cccs2)c2nc3ccccc3[nH]2)ccc1O	88	-2.5	i	0.7	29	27	-6
COC(=O)c1ccccc1NC(=O)Nc1cccnc1	101	0.3	i	0.9	9	119	-5
CC(C)(C)CC(C)(C)c1ccc(O)c(CN2CCN(CCC#N)CC2)c1	121	-0.1	i	0.95	-7	60	-4
CN(C)CCCN(Cc1cc2cc3c(cc2[nH]c1=O)OCO3)C(=S)NCc1ccco1	104	.	i	0.92	.	.	0
O=[N+]([O-])c1nn(-c2ccc3c(c2)OCCO3)n(O)c1=Nc1ccc(Cl)cc1	105	-3.0	i	0.99	.	.	14
O=[N+]([O-])c1ccc(Oc2ccc(S(=O)(=O)Nc3ccccc3)cc2)cc1	69	0.8	i	0.89	14	101	1
CCn1c(=S)sc2nc(C)sc21	.	-2.0	i	1.1	-17	98	-13
COc1ccc(-c2nn(-c3ccccc3)cc2C(=O)NC(=S)NNC(=O)c2ccncc2)cc1	102	.	i	0.99	.	.	0

Whole records as entered above:
COc1cc(/C=C(/C(=O)c2cccs2)c2nc3ccccc3[nH]2)ccc1O in the list: RGS16-Gao = 88; GALR2 ag = -2.5; HSV replic up = i; HSV replic up primary fold = 0.7; Insulin prom inh = 29; Insulin prom inh cell count = 27; PKD1 inh = -6
CC(C)(C)CC(C)(C)c1ccc(O)c(CN2CCN(CCC#N)CC2)c1 in the list: RGS16-Gao = 121; GALR2 ag = -0.1; HSV replic up = i; HSV replic up primary fold = 0.95; Insulin prom inh = -7; Insulin prom inh cell count = 60; PKD1 inh = -4

The list continues.
compound	RGS16-Gao	GALR2 ag	HSV replic up	HSV replic up primary fold	Insulin prom inh	Insulin prom inh cell count	PKD1 inh
COc1ccc(CCNCC(=O)Nc2ccc(C)c(S(=O)(=O)N(C)C)c2)cc1	101	.	i	0.88	33	183	-2
N#Cc1ccsc1NC(=O)CN1CCCCC1	104	-1.7	i	0.99	45	73	-9
Cc1nc([N+](=O)[O-])cn1-c1nc2ccccn2c1[N+](=O)[O-]	100	.	i	0.92	.	.	.
CCN(CC)CCN(Cc1cc2ccc(C)c(C)c2[nH]c1=O)C(=S)NCc1ccco1	111	.	i	1.1	.	.	6
CCN1C(=O)c2cccc3c(S(=O)(=O)Nc4ccc(OC)cc4OC)ccc1c23	101	-1.9	.	.	.	.	2
Cc1cc(NC(=O)CSc2nc3ccsc3c(=O)n2Cc2ccccn2)n[nH]1	102	-3.8	i	0.74	-79	59	-8
COc1ccc(NC(=O)Cn2c(=O)n(-c3ccccc3)c(=O)c3oc4ccccc4c32)c(OC)c1	232*[activator]	-1.1	i	1	-28	40	-10
